PINK1 expr mod = PINK1 expression modulation; PINK1 immunofluorescence, high-content cytometry, 24 h; Potency, µM (top dose mostly 76.6 µM), for the others: at the highest dose activation (PINK1 increase), hits mostly activators; 0.2% of 410,000 active; active = well fitted activation curve with a large enough effect; inconclusive = small, poorly fitted or top-dose-only effect; inactive = flat fitted curve, though single readings scatter; cell line not stated here;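 note: potency is the fitted concentration of half-maximal effect; % of control where 0% means no effect; nearly all actives have a fitted effect of over 65% in size; a mitochondrial uncoupler was the plate control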
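Stable cell line, 250 cells/well, 12 h attachment; compounds pinned at 5 concentrations, 24 h; CCCP control. Fixed with nuclear dye, primary antibodies 12 h at 10 degrees C, secondary plus cell stain; laser-scanning cytometer read.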
D2 agonist = agonists of human D2 dopamine receptor (beta-arrestin) | P14416 | DiscoveRx PathHunter D2 beta-arrestin, luminescence, 90 min; 100% = 57 uM dopamine signal | activation, % (concentration not given with the values) | 0.084% of 360,000 active | AID 624465; in the data active = activation above about 40%; inconclusive = about 15% to 40%; inactive = below about 15%; note: compound concentration not given in the record; the text of the record calls up to 30% inactive
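Agonist mode: compounds alone added to overnight-plated D2 PathHunter cells for 90 min at 37 C, with 57 uM final dopamine (EC100) defining full response. Beta-arrestin recruitment detected by chemiluminescent reagent, read after 1 h at ambient temperature.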
TRPML1 blocker = human mucolipin-1 channel inhibition; Q9GZU1; TRPML1-inducible cells, Ca2+ dye fluorescence, FDSS; hits give low values; inhibition of EC80 agonist-evoked calcium signal; activity change, negative = inhibition, % (concentration not given with the values); 0.02% of 390,000 active; in the data active means activity change below about -50%; inconclusive means about -30% to -50%; inactive means above about -30%;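 note: stimulus is agonist 54-4 at its EC80 concentration; % is set by controls: 0 for no effect and ±100 for the full control effect; compound concentration not given in the record; the text of the record puts the active cut at -80%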
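TRPML1-DL cells, Tet-induced overnight (~16 h, 37 °C) at 1,500 cells/well, were loaded with Ca8 no-wash dye plus quencher for 45-90 min at room temperature. Compounds were pinned during FDSS kinetic reading; agonist 54-4 at EC80 (4 uM final) then added.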
Six1-Eya2 inh = inhibitors of human Six1/Eya2 interaction | Q15475+O00167 | AlphaScreen GST-Six1/His-Eya2 binding, biochemical; hits give low values; control for the full effect not named in the record | activity change, % (concentration not given with the values) | 0.56% of 360,000 active; in the data active = activity change below about -65%; inconclusive = about -30% to -65%; inactive = above about -30%; note: % is set by controls: 0 for no effect and ±100 for the full control effect
Target sequence (O00167 whole entry, looked up): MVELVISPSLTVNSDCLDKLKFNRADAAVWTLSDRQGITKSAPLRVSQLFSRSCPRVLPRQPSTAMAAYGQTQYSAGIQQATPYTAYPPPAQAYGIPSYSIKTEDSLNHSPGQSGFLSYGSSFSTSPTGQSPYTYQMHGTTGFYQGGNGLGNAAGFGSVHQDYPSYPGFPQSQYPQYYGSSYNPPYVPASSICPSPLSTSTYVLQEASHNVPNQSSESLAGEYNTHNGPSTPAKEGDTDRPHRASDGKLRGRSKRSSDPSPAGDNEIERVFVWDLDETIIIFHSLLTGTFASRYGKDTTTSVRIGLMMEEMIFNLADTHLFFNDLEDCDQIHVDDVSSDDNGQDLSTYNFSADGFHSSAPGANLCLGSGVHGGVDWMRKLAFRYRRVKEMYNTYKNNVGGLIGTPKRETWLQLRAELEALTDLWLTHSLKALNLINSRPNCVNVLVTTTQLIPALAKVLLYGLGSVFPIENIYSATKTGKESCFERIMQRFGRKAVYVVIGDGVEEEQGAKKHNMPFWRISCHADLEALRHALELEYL
Target sequence (Q15475 whole entry, looked up): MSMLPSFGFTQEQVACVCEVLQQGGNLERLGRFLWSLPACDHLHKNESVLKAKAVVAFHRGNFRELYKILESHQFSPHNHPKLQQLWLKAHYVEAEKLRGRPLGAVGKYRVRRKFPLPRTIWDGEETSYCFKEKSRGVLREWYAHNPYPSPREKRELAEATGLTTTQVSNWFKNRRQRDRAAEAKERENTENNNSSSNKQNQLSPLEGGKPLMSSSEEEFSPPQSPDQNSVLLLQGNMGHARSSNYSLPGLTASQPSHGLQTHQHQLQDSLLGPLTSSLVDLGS
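Compounds are tested against tagged Six1 and Eya2 proteins bridged by glutathione donor and nickel acceptor beads; after a one-hour incubation at 37 °C without light, AlphaScreen emission is recorded.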
TRPML1 ag = human mucolipin-1 channel agonism. Q9GZU1. TRPML1-expressing cells, Ca2+ dye fluorescence, FDSS; host cell line not named in the record; reference of the full effect not given here. activation, % (test concentration not listed). 0.12% of 410,000 active. AID 624414; in the data active = activation above about 50%; inconclusive = about 30% to 50%; inactive = below about 30%; note: 0% is about no effect; the text of the record puts the active cut at 80%
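Agonist activity was taken from a 110 s kinetic Ca2+ dye read on the FDSS after pinning compounds onto TRPML1-DL cells. The cells were seeded at 1,500/well with Tet inducer, incubated about 16 h, then dye-loaded at room temperature.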
CtBP-E1A blk = blocks the CtBP interaction with E1A; AlphaScreen GST-E1A/His-CtBP binding, 1536-well; hits give low values; control for the full effect not named in the record; activity change, % (no concentration beside the values); 0.49% of 340,000 active; AID 651724; in the data active means activity change below about -65%; inconclusive means about -30% to -65%; inactive means above about -30%; note: % is set by controls: 0 for no effect and ±100 for the full control effect; compound concentration not given in the record
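AlphaScreen with 125 nM GST-E1A and 125 nM His-CtBP (5X stocks) in Tris pH 8.0, 300 mM NaCl, BSA, Tween 20, TCEP. Compounds preincubated 2 h at 37 deg C, then glutathione donor/nickel acceptor beads added for 1 h at 37 deg C in dark.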
Numbers without * were called inactive; ? = inconclusive; . = no result given; [ ] = remark or other dose.

Screens in order – D2 agonist	TRPML1 ag	CtBP-E1A blk	TRPML1 blocker	Six1-Eya2 inh	PINK1 expr mod
> CCc1c(C)nc(SCC(=O)N2CCCCC2C)[nH]c1=O (stereo unspecified)
→ -6.2	0.2	.	12	9	2.1%
> CNc1ncnc2c1ncn2[C@H]1CN(Cc2ccc3c(c2)OCO3)C[C@@H](CO)O1
→ 1.2	-0.1	7	.	-1	2.3%
> CS(=O)(=O)Nc1ccc(C(=O)Nc2ccc3c(c2)OCCO3)cc1
→ -1.6	2.1	5	19	5	0.4%[38.3 µM]
> O=C(O)C1CCN(c2nc(-c3ccccc3)nc3c2oc2ccccc23)CC1
→ -0.4	0.9	-3	30	-18	-1.8%
> Cc1ccc(-c2ccc(C(=O)NCCCNC(=O)c3cnccn3)o2)cc1Cl
→ 0.4	1.4	0	-16	-9	-1.4%
> O=C(Cn1c(SCc2ccccc2F)nc2cccnc21)Nc1ccc(F)c(Cl)c1
→ .	-0.2	.	8	.	2.6%
> CCOc1ccc(NC(=O)CSc2oc(-c3ccco3)nc2S(=O)(=O)c2ccc(Cl)cc2)cc1
→ .	0.2	.	-12	.	0.1%
> CCC(C(=O)O)n1c2ccccc2c2cn[nH]c(=O)c21 (stereo unspecified)
→ -4.3	.	-3	.	-1	1.5%
> CC(C)c1ccc(CCNC(=O)c2cccc(S(=O)(=O)N3CCN(C)CC3)c2)cc1
→ 0.2	0.1	-1	-5	2	1.6%
> CCOC(=O)N1CCN(S(=O)(=O)c2cccs2)CC1
→ -1.2	-0.4	0	0	3	-0.1%
> Cc1ccc(CNC(=O)CCNC(=O)c2ccc([N+](=O)[O-])cc2)cc1
→ -2.5	0.4	4	23	-5	0.3%
> CCc1cccc2c(C(=O)CSc3nnc(C4CC4)o3)c[nH]c12
→ -1.9	0.8	-1	4	-2	15%
> O=C(COC(=O)c1ccncc1)NC(=O)C1CCCCC1
→ -1.5	2.7	7	-4	5	6.2%[38.3 µM]
> O=C(Nc1nccs1)C1CCN(S(=O)(=O)c2ccc3c(c2)OCCCO3)CC1
→ 0.0	0.6	0	-1	-3	6.1%[38.3 µM]
> COc1ccc(NC(=O)NC2(C(=O)N3CCN(C)CC3)CCCCC2)cc1
→ -1.5	0.2	6	-3	-3	-0.8%
> COc1ccc(S(=O)(=O)N2CCOC23CCN(C(=O)c2ccc(Cl)cc2Cl)CC3)cc1
→ 0.0	0.5	-1	3	2	3.2%
> COC(=O)CCSCC(=O)N1N=C(c2ccc(Br)cc2)CC1c1cccc(OC)c1OC (stereo unspecified)
→ -4.3	0.9	-9	1	?	0.4%
> Cc1ccc(OCC(=O)Nc2cccc(C(=O)OCc3cc(=O)n4c(C)csc4n3)c2)cc1
→ .	3.9	.	-14	.	2.9%
> Nn1c(SCc2ccccc2F)nnc1-c1ccncc1
→ -1.0	-0.5	0	5	0	1.8%
> CCC1(C(=O)c2ccccc2)C2c3cc(Br)ccc3OC(=O)C21C(=O)N1CCOCC1 (stereo unspecified)
→ -4.1	-0.4	-2	-2	-6	2.4%
> CCCOc1cccc(C(=O)Nc2cccc(NC(=O)c3ccc(C(C)(C)C)cc3)c2)c1
→ .	-0.6	.	-16	.	2.1%
> O=C(CC12CC3CC(CC(C3)C1)C2)N1CCN(S(=O)(=O)c2cccs2)CC1
→ -3.6	0.4	6	10	-7	1.9%
> CCOC(=O)c1sc(=S)n(-c2ccc(Cl)cc2)c1SC
→ -4.0	-0.1	-1	6	-2	0.4%
> O=C(CSc1ccc(Cl)cc1)Nc1ccccc1N1CCN(C(=O)c2ccccc2)CC1
→ -5.0	-1.6	4	-15	15	0.0%
> Cc1ccc(Cl)cc1N1CCN(C(=O)C2CCC(=O)N2C(C)C)CC1 (stereo unspecified)
→ 0.5	-0.6	2	8	0	0.2%
> Cc1cc2c(=O)cc(-c3ccccc3)oc2c(C(=O)O)c1C
→ -1.0	-0.2	2	.	-12	0.6%
> Nc1nnc(SCC(=O)c2cccc([N+](=O)[O-])c2)s1
→ -3.3	0.0	-7	5	-2	-0.6%
> Cc1ccc(S(=O)(=O)CCC(=O)OCc2ccccc2)cc1
→ -3.9	0.5	0	-13	7	2.2%
> COc1cccc(OC)c1C(=O)Nc1ccncc1
→ -6.9	0.2	7	-12	-10	2.0%
> CCOc1ccc2[nH]cc(S(=O)(=O)c3ccc(F)cc3)c(=O)c2c1
→ 5.4	-1.3	-1	1	-5	1.1%
> O=C1C2CC(O)CN2C(=O)N1c1ccccc1 (stereo unspecified)
→ 1.3	0.1	0	-4	5	-1.8%
> Cc1cccc(C(=O)O[C@H]2[C@H](C)NS(=O)(=O)[C@H]3CC4C=C[C@]23O4)c1
→ -3.1	0.5	-5	-3	0	0.9%
> CCC(=O)c1ccc(OCC(=O)OCC(=O)c2cc(C)n(C)c2C)cc1
→ -1.0	1.9	-2	-3	-7	-3.0%
> Cc1ccc(N2C(=N)SCC2=O)cc1Cl
→ -4.4	0.1	-13	-12	3	-1.4%
> S=C(Nc1ccccc1Cl)N1CCCCCC1
→ -1.6	-0.7	0	-16	7	0.3%
> COc1ccc(C(=O)N2CCC(c3ccccc3)CC2)c(OC)c1OC
→ -3.2	0.1	1	14	8	1.3%
> COCCN(C)C(=O)CC1C(=O)NCCN1CC(c1ccccc1)c1ccccc1 (stereo unspecified)
→ -1.5	0.6	.	9	1	5.1%
> Cc1ccc(C)c(N(C(=O)CNC(=O)c2ccco2)C(C(=O)NC2CCCC2)c2ccncc2)c1 (stereo unspecified)
→ -3.2	-0.6	-13	10	-3	1.4%
> COC(=O)c1ccc(Oc2ccc3nnc(C)n3n2)cc1
→ -3.1	1.0	-2	0	6	1.0%
> O=C(c1ccc(NC(=S)Nc2ccc(Cl)c(Cl)c2)cc1)N1CCCC1
→ 0.8	-1.7	10	13	0	28µM*
> CC1(C(=O)NS(=O)(=O)c2cccc(OC(F)F)c2)CCN1C(=O)Cc1ccccc1 (stereo unspecified)
→ -4.0	-0.1	5	.	10	0.1%
> Cc1cccc(NC(=O)CCNC(=O)c2ccco2)c1C
→ 7.7	0.3	5	11	0	-0.5%
> CCOc1ccc(NC(=O)c2ccc(S(=O)(=O)N3CCOCC3)cc2)cc1
→ -0.9	0.3	-28	2	-2	7.6%
> COc1ccccc1CNC(=O)COC(=O)C1CCN(S(=O)(=O)c2c(Cl)cccc2Cl)CC1
→ 4.4	0.7	7	-2	-2	0.7%
> CC(C)(C)OC(=O)N[C@@H](/C=C/c1ccccc1)C(=O)OC(C)(C)C
→ -1.2	0.3	-11	21	1	7.5%
> N#Cc1c(C(F)(F)F)cc(-c2cccs2)nc1SCC(=O)Nc1ccc(Cl)cc1
→ .	5.6	.	11	.	1.8%
> Cc1ccc2cccc(OCC(=O)Nc3cccc(S(=O)(=O)N4CCCC4)c3)c2n1
→ -2.4	1.8	?	-1	?	-1.3%
> CNc1nnc(CSc2nc3ccccc3s2)s1
→ -1.0	-0.3	-4	3	-6	-0.6%
> Cc1ccc(NC(=O)c2c(O)c3ccccc3n(C)c2=O)nc1
→ -2.4	0.2	4	27	4	2.2%
> O=C(CSc1ccc(Cl)cc1)OCc1nnc(-c2ccccc2)o1
→ -1.1	0.4	5	-7	5	0.9%
> COc1ccccc1CNC(=O)Cn1cccc1C(=O)c1ccccc1
→ -4.3	1.1	-1	-15	0	-1.5%
> CC1(C)Cc2nc3oc4c(N5CCOCC5)ncnc4c3cc2CO1
→ -0.9	2.4	8	-6	-2	3.8%[38.3 µM]
> CN(CC(=O)NCc1ccncc1)S(=O)(=O)c1cc(Cl)ccc1Cl
→ -3.2	0.2	5	2	1	0.7%
> COc1ccc(C2c3c(ccc4ccccc34)Oc3ncn4nc(CO/N=C/c5ccccc5)nc4c32)cc1 (stereo unspecified)
→ 3.8	0.9	-1	11	3	-1.7%
> CCOC(=O)C1CCN(C(=O)Cn2cccc2C(=O)c2ccccc2)CC1
→ -0.1	-0.4	4	4	7	-0.1%
> CS(=O)(=O)N(CCc1ccccc1)CC(=O)N1CCN(Cc2ccc3c(c2)OCO3)CC1
→ -2.6	0.4	-8	-4	0	-5.6%
> CC(=O)C1=C(C)OC(N)=C(C#N)C1c1ccncc1 (stereo unspecified)
→ -0.3	-0.1	-6	?	1	-1.6%
> Cc1cc(=O)[nH]c(SCCCOc2ccc(F)cc2)n1
→ -2.5	2.5	15	-13	4	-0.4%[38.3 µM]
> CCN(CC)c1ccc(NC(=S)Nc2ccc(F)cc2)cc1
→ 12	0.0	-20	-11	?	?
> C=CCn1c(SCn2nnc3ccccc3c2=O)nnc1-c1ccc(F)cc1
→ 2.0	-0.6	17	-13	0	-6.8%[38.3 µM]

(list continues)
Screens in order – D2 agonist	TRPML1 ag	CtBP-E1A blk	TRPML1 blocker	Six1-Eya2 inh	PINK1 expr mod
> CC1(c2ccccc2)NC(=O)N(CC(=O)Nc2ccc(N3CCOCC3)cc2)C1=O (stereo unspecified)
→ 3.2	-0.4	-4	1	-6	-1.3%
> CCOCCn1c(N(C)Cc2ccccc2)nc2c1c(=O)[nH]c(=O)n2C
→ 0.0	0.4	-1	9	-1	-1.2%
> COc1ccc(C2CCCN2C(=S)Nc2cccc(Cl)c2C)cc1OC (stereo unspecified)
→ -2.5	0.1	-5	7	-8	4.3%
> COc1cccc(NC(=O)C(=O)NCCCn2ccnc2)c1
→ -5.6	0.0	0	9	-3	0.4%
> CCOc1ccc(C2C(C(=O)Nc3ccccc3)=C(C)N=c3s/c(=C/c4cccc(OCC(=O)O)c4)c(=O)n32)cc1 (stereo unspecified)
→ -5.6	0.0	-20	-8	-19	2.2%
> COC(=O)c1ccccc1C(=O)N1CCCC(CNC(=O)c2ccc(F)cc2)C1 (stereo unspecified)
→ 0.0	-0.1	11	-13	7	-1.1%
> CCCCn1cnc2c(sc3nc4c(cc32)CSC(C)(C)C4)c1=O
→ -1.3	-1.0	0	-1	23	11%
> CN1CCC(N(C)C(=O)c2ccccc2Nc2ccc(SC(F)F)cc2)CC1
→ -2.6	0.2	4	8	-1	29%[38.3 µM]
> Cc1ccsc1/C=N/Nc1ccc(C(=O)O)cc1
→ ?	1.0	.	28	1	1.0%
> O=S(=O)(Nc1ccccc1Br)c1cccs1
→ -0.2	-0.4	4	-10	3	-0.5%
> c1ccc(CNc2nc3ccccc3n3cnnc23)cc1
→ -2.0	0.2	-25	7	5	1.0%
> O=C(Cc1ccc(Br)cc1)c1ccc(O)cc1O
→ 1.1	1.4	2	23	2	1.2%
> Cc1cc(OC(=O)c2ccc(S(=O)(=O)N(C)C)cc2)c([N+](=O)[O-])c(=O)[nH]1
→ -0.6	0.1	3	6	6	0.6%
> Cc1ccccc1NC(=O)Cc1nc(COC(=O)Cc2cccc(C(F)(F)F)c2)cs1
→ 3.3	0.7	5	-3	5	2.2%

Taken from above:
`O=C(Cc1ccc(Br)cc1)c1ccc(O)cc1O` in CtBP-E1A blk is entered as 2
`COC(=O)c1ccc(Oc2ccc3nnc(C)n3n2)cc1` in Six1-Eya2 inh is entered as 6
`CCOC(=O)C1CCN(C(=O)Cn2cccc2C(=O)c2ccccc2)CC1` in CtBP-E1A blk is entered as 4
